Six1-Eya2 blk – inhibitors of human Six1/Eya2 interaction. Q15475+O00167. AlphaScreen GST-Six1/His-Eya2 binding, biochemical; active compounds read low; control for the full effect not named in the record. activity change, % (test concentration not listed). hit rate 0.56% among 360,000. AID 651725; in the data active = activity change below about -65%; inconclusive = about -30% to -65%; inactive = above about -30%; also: % is scaled to controls: 0 for no effect and ±100 for the full control effect
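GST-Six1 + His-Eya2 (5X stock: 250/500 nM); Tris pH 8.0, 300 mM NaCl, 0.05% BSA, 0.02% Tween 20; GSH donor/Ni acceptor beads; 1 h 37 °C dark; AlphaScreen readout.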
PINK1 modulator – PINK1 expression modulation | hit rate 0.2% among 410,000 | Potency, µM (highest dose often 76.6 µM), inactives show at the highest dose activation (PINK1 increase), hits mostly activators | PINK1 immunofluorescence, high-content cytometry, 24 h; active = well fitted activation curve with a large enough effect; inconclusive = small, poorly fitted or top-dose-only effect; inactive = flat fitted curve, though single readings scatter; cell line not stated here;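 also: potency is read from the fitted curve at half-maximal effect; % of control where 0% means no effect; nearly all actives have a fitted effect of over 65% in size; a mitochondrial uncoupler was the plate control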
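A stable cell line was treated with compounds at 5 concentrations for 24 hours, with CCCP as control. PINK1 levels and mitochondrial localization were measured by immunofluorescence with mitochondrial, cell and nuclear markers after fixation, read by laser-scanning cytometry.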
D2 agonist – agonists of human D2 dopamine receptor (beta-arrestin). P14416. DiscoveRx PathHunter D2 beta-arrestin, luminescence, 90 min; 100% = 57 uM dopamine signal. activation, % (test concentration not listed). hit rate 0.084% among 360,000. AID 624465; in the data active = activation above about 40%; inconclusive = about 15% to 40%; inactive = below about 15%; also: compound concentration not given in the record; the text of the record calls up to 30% inactive
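Agonist mode: compounds alone added to overnight-plated D2 PathHunter cells for 90 min at 37 C, with 57 uM final dopamine (EC100) defining full response. Beta-arrestin recruitment detected by chemiluminescent reagent, read after 1 h at ambient temperature.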
D2 potentiator – potentiates the human D2 dopamine receptor allosterically; P14416; DiscoveRx D2 beta-arrestin cells, luminescence, 90 min; 100% = 57 uM dopamine signal; potentiation, % (no concentration beside the values); hit rate 0.23% among 360,000; AID 624464; active = potentiation of 50% or more; inconclusive = 30% to 50%; inactive = 30% or less;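 also: compound concentration not given in the record; tested on top of an EC20 dose of dopamine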
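PathHunter beta-arrestin assay in DiscoveRx D2 cells. Compounds were added with an EC20 of dopamine (50 nM final) for 90 min at 37 deg C. Luminescence was read 1 h after detection reagent, with 57 uM dopamine as the EC100 control.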
CtBP-E1A blk – CtBP/E1A binding inhibition | AlphaScreen GST-E1A/His-CtBP binding, 1536-well; active compounds read low; control for the full effect not named in the record | activity change, % (test concentration not listed) | hit rate 0.49% among 340,000 | AID 651724; in the data active means activity change below about -65%; inconclusive means about -30% to -65%; inactive means above about -30%; also: % is scaled to controls: 0 for no effect and ±100 for the full control effect
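Protein mix (5X: 125 nM each GST-E1A, His-CtBP) was incubated with pinned compound 2 h at 37 deg C in dark, in 50 mM Tris pH 8.0 buffer with 300 mM NaCl. Glutathione donor and nickel acceptor beads followed; AlphaScreen signal read after 1 h.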
TRPV1 potentiator – enhances activation of the human vanilloid receptor TRPV1; Q8NER1; TRPV1-expressing cells, Fluo-8 calcium influx, capsaicin EC20 potentiation; host cell line not named in the record; control for the full effect not named in the record; potentiation, % at 8.33 µM; hit rate 0.02% among 320,000; AID 540277; active means potentiation above 80%; inconclusive means 30% to 80%; inactive means below 30%; also: 0% is about no effect
Target sequence (Q8NER1 whole entry, looked up): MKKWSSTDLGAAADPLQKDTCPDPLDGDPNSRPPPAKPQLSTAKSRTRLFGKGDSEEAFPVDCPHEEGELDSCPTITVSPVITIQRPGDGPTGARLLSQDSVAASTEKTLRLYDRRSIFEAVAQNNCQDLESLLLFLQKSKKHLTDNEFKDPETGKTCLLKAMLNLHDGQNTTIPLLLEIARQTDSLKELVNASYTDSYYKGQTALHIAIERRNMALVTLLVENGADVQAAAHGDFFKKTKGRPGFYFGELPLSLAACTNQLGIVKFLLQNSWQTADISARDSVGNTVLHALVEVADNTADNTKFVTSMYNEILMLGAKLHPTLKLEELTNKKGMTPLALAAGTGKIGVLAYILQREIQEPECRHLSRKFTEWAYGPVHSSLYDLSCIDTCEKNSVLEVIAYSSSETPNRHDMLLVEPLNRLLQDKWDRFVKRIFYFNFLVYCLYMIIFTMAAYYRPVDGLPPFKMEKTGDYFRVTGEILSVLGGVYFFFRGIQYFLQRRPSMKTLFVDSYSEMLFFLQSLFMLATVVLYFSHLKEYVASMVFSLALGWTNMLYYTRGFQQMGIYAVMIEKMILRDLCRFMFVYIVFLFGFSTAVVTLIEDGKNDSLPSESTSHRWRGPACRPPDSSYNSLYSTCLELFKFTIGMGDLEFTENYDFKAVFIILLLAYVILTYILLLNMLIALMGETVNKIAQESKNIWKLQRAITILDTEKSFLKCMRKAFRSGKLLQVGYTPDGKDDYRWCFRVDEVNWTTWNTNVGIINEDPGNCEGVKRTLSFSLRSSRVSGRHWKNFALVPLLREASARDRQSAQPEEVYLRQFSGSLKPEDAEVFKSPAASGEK
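TRPV1-expressing cells were cultured overnight at 35.5C and loaded with Fluo-8 calcium dye for 40 to 90 min at room temperature. After a 10 s baseline, compound was added and calcium influx was read kinetically for 3 min (ex 480/em 520 nm).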
Sfp inh – Sfp phosphopantetheinyl transferase inhibition | hit rate 3.5% among 310,000 | Q9F4F7 | Potency, µM, for inactives: max response, negative = inhibition, hits mostly inhibitors | Biochemical Sfp PPTase activity, qHTS; active = well fitted inhibition curve with a large enough effect; inconclusive = small, poorly fitted or top-dose-only effect, or another doubt; inactive = no such curve, though single readings can be large or run the other way;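 also: the enzyme is Sfp with the accession as filed and its product quenches rhodamine fluorescence; potency is read from the fitted curve at half-maximal effect; 0% = enzyme reaction without inhibitor and -100% = no enzyme wells; top concentration of the series not given in the record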
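Fluorescence-quenching assay with 15 nM Sfp, 5 uM rhodamine-CoA and 12.5 uM BHQ-2-labelled ybbR peptide in pH 7.6 Hepes/MgCl2 buffer. Enzyme was pre-incubated with compound for 15 min at room temperature. Rate was taken from the 30-min fluorescence change (525/598 nm).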
Numbers without * were called inactive; ? = inconclusive; / = not tested or not shown; & = joins results of further samples; [ ] = remark or other dose.

item	SMILES	Six1-Eya2 blk	PINK1 modulator	D2 agonist	D2 potentiator	CtBP-E1A blk	TRPV1 potentiator	Sfp inh
1	O=C(Nc1c(F)cc(F)cc1Br)c1cc(-c2ccco2)on1	2.3	11.2%[38.3 µM]	0.7	-0.4	3.6	2.5	-6.7%
2	Cc1cccc(OCc2nnc3n2CCCCC3)c1	-6.5	-0.7%	-0.4	-6.4	4.9	-0.2	2.9%
3	COc1ccc(S(=O)(=O)N2Cc3ccccc3CC2C(=O)N2CCOCC2)cc1OC (stereo not given)	-1.1	-1.6%	-4.7	0.7	2.2	?	6.8%
4	CC(=O)N1C(=O)N(C(C)=O)C2C1N(C(C)=O)C(=O)N2C(C)=O (stereo not given)	-0.3	2.9%[38.3 µM]	-0.9	0.1	0.5	4.5	23.0%
5	COc1cccc(NC(=S)N(C)C2CCN(C)CC2)c1	-2.0	0.9%	-3.3	-5.5	-1.4	-9.9	2.4%
6	COc1ccc(C(=O)c2coc3ccc(O)cc23)cc1	10.1	-0.5%	-4.4	-11.8	/	-18.6	-27.7%&5.5%
7	CC(C)(C)NC(=O)c1ccccc1NC(=O)C1CCCO1 (stereo not given)	-4.1	-1.1%	-7.4	-6.2	-14.8	0.1	18.4%
8	COC(=O)C1=C(C)N(C)C(=O)NC1c1cc2c(cc1Br)OCO2 (stereo not given)	0.3	0.3%	-3.2	-2.1	5.0	-3.3	22.8%
9	C=CCNS(=O)(=O)c1ccc(OCC(=O)OC)cc1	6.3	1.1%[38.3 µM]	-2.7	-4.8	13.2	5.4	19.9%
10	FC(F)(F)c1ccccc1/C=N/n1c(C2CCCCC2)n[nH]c1=S	2.4	5.5%	1.3	-6.2	/	2.3	?
11	CCOc1ccc(CCNC(=O)COC(=O)/C=C/c2ccc(OC)c(OC)c2)cc1OCC	-0.3	3.8%	0.1	-5.9	-9.2	20.8	0.8%
12	Cc1ccc(S(=O)(=O)Nc2c3ccccc3nc(=O)n2-c2ccccc2)cc1	-4.4	-1.1%	-0.5	-1.9	-9.3	3.0	-5.9%

Following part
item	SMILES	Six1-Eya2 blk	PINK1 modulator	D2 agonist	D2 potentiator	CtBP-E1A blk	TRPV1 potentiator	Sfp inh
13	COc1ccc(N2CCN(C(=O)CCCn3c(=O)[nH]c4ccsc4c3=O)CC2)cc1	-7.3	-0.7%	2.5	-0.7	4.3	-3.4	0.0%
14	O=C(NC(=S)NCCSc1ccccc1)c1cccnc1	-7.8	0.8%	-2.8	-14.5	-8.8	-11.9	-19.1%
15	CCOC(=O)C1CCCN(C(=O)c2ccc(Cn3c(=S)[nH]c4cc(C(=O)OC)ccc4c3=O)cc2)C1 (stereo not given)	1.0	5.8%	-4.5	-4.9	-4.4	0.5	18.7%
16	COc1ccc(NS(=O)(=O)c2cccc(NC(=O)c3ccc(S(=O)(=O)N4CCCCCC4)cc3)c2)cc1	-2.1	22.4%	6.4	-6.7	3.2	-9.9	40.8%
17	C/C(=N\NC(=S)NC1CCCCC1)c1ccc(OC(F)F)cc1OC(F)F	-23.3	?	-5.9	-12.2	-16.5	?	20.3%
18	CCOC(=O)c1ccc(NC(=S)N2CCN(CCNC3=CC(=O)CC(C)(C)C3)CC2)cc1	-7.2	-1.2%	-1.4	-3.0	-3.7	12.0	-5.1%
19	COc1ccc(NC(=O)c2ccc(-n3cccn3)nc2)c(OC)c1	-1.2	12.2%	-3.6	-8.9	3.8	8.4	13.2%
20	Cc1ccc(-c2nc3ccccc3c(=O)n2CCCn2ccnc2)cc1	2.0	-0.2%	1.4	0.6	-2.3	-2.4	26.8%
21	CCOc1ccc(-c2ccc(/C=C3/C(=N)N4C=CSC4=NC3=O)o2)c([N+](=O)[O-])c1	-9.1	?	4.0	-3.9	-2.8	3.9	-27.7%
22	CC(C)N1CC(C(=O)Nc2nc3ccccc3s2)CC1=O (stereo not given)	2.9	0.6%	-3.1	-7.1	-1.4	4.5	15.7%
23	COc1cccc(-n2c(SCC(=O)NCc3cccs3)nc3ccccc3c2=O)c1	2.6	1.7%	-6.7	0.8	-13.9	-1.3	-11.8%
24	CN(CCc1ccccn1)C(=S)Nc1cccc(S(=O)(=O)N(C)C)c1	2.6	1.2%	-3.7	-6.1	2.6	5.2	-4.3%

The list continues.
Sequence of screens – Six1-Eya2 blk	PINK1 modulator	D2 agonist	D2 potentiator	CtBP-E1A blk	TRPV1 potentiator	Sfp inh
25: COc1ccc(-n2c(=O)c3c4c(sc3n3cnnc23)CC(C)CC4)cc1 (stereo not given)
    4.2	-1.8%	0.1	-11.4	-9.0	/	/
26: CC(=O)N1CCC2(CC1)C/C(=N\NC(=S)Nc1ccc(C)cc1)c1cc(O)ccc1O2
    -14.8	0.0%	-2.9	-14.9	-13.1	5.2	1.0%
27: Cc1ccc(NC(=O)CS(=O)CC(=O)NCC2CCCO2)cc1 (stereo not given)
    -0.6	4.8%	-5.4	1.2	2.0	20.2	4.0%
28: Cn1ncc(N=Cc2ccccc2)c1C(N)=O
    -7.0	3.7%	-0.7	-18.8	-2.2	8.7	-1.9%
29: COc1ccccc1-c1noc(-c2ccccc2C(=O)NCC2CCCO2)n1 (stereo not given)
    -2.0	-0.6%	1.4	3.5	0.1	20.7	27.3%
30: CN1C(=O)CC(c2cn(Cc3ccccc3)c3ccccc23)C1=O (stereo not given)
    -6.8	-0.9%	-1.2	-12.3	/	?	-20.4%
31: Cc1cccc(NS(=O)(=O)c2csc(C(N)=O)c2)c1
    28.8	1.0%	-1.7	-1.3	0.0	-13.1	3.3%
32: CN(C(=O)CSc1n[nH]c(=O)[nH]c1=O)c1ccccc1
    -0.7	-1.0%	-4.1	-1.5	-8.2	/	/
33: O=S(=O)(Nc1ccc(O)c2ccccc12)c1ccc(OC(F)(F)F)cc1
    -1.2	-1.0%	-11.7	21.5	?	/	/
34: C[C@H]1CN([C@@H](C)CO)C(=O)CCCn2nncc2CO[C@@H]1CN(C)Cc1cccc(C(F)(F)F)c1
    16.6	2.4%	0.9	-2.5	-21.4	/	/
35: Cc1ccc(CNC(=O)Cc2noc3ccccc23)cc1
    -18.2	0.8%	-3.0	-2.1	-11.1	3.0	3.7%
36: C=CCN(Cc1cccc(OC)c1OC)S(=O)(=O)N(C)C
    5.6	0.5%[38.3 µM]	0.7	8.1	5.0	2.7	-4.5%
37: O=C(CCc1ccc(S(=O)(=O)N2CCOCC2)cc1)Nc1nccs1
    -5.7	-0.3%	-0.9	-14.1	-0.1	-7.8	8.7%
38: O=C(COC(=O)c1c(Cl)cccc1Cl)Nc1cc(Cl)ccc1Oc1ccccc1
    -9.1	2.2%	-8.6	-4.4	/	-0.3	34.5%[activator]
39: CC(=O)N1CCN(c2ccc(NC(=O)c3ccc4c(c3)OCCO4)cc2Cl)CC1
    5.4	0.1%	7.6	7.2	9.9	-4.5	-8.1%
40: Cc1cccc(C)c1N(Cc1ccccc1F)S(C)(=O)=O
    10.4	-0.2%	-4.7	-13.8	1.9	17.0	0.7%
41: COCC(C)n1c(SCC(=O)Nc2cc(C)on2)nc2ccccc2c1=O (stereo not given)
    10.3	3.6%	-2.9	-1.2	13.3	18.1	/
42: CC(C)Oc1ccc(C(CC(=O)O)n2cnnn2)cc1 (stereo not given)
    6.0	-0.5%	-5.5	-4.3	2.3	9.5	20.8%
43: Cc1ccc(Cl)cc1N1CCN(C2CCCCC2NS(=O)(=O)c2ccccc2)CC1 (stereo not given)
    4.0	2.9%	0.2	-4.7	/	-4.8	7.4%
44: CCCCN(C)C(=O)Cn1c(=O)oc2cc(S(=O)(=O)N3CC(C)CC(C)C3)ccc21 (stereo not given)
    4.9	0.0%	-4.5	-9.6	-19.9	-7.4	16.1%

Nos. 40 through 44 of the list above:
Sequence of screens – Six1-Eya2 blk	PINK1 modulator	D2 agonist	D2 potentiator	CtBP-E1A blk	TRPV1 potentiator	Sfp inh
40: Cc1cccc(C)c1N(Cc1ccccc1F)S(C)(=O)=O
    10.4	-0.2%	-4.7	-13.8	1.9	17.0	0.7%
41: COCC(C)n1c(SCC(=O)Nc2cc(C)on2)nc2ccccc2c1=O (stereo not given)
    10.3	3.6%	-2.9	-1.2	13.3	18.1	/
42: CC(C)Oc1ccc(C(CC(=O)O)n2cnnn2)cc1 (stereo not given)
    6.0	-0.5%	-5.5	-4.3	2.3	9.5	20.8%
43: Cc1ccc(Cl)cc1N1CCN(C2CCCCC2NS(=O)(=O)c2ccccc2)CC1 (stereo not given)
    4.0	2.9%	0.2	-4.7	/	-4.8	7.4%
44: CCCCN(C)C(=O)Cn1c(=O)oc2cc(S(=O)(=O)N3CC(C)CC(C)C3)ccc21 (stereo not given)
    4.9	0.0%	-4.5	-9.6	-19.9	-7.4	16.1%

Further structures follow:
Sequence of screens – Six1-Eya2 blk	PINK1 modulator	D2 agonist	D2 potentiator	CtBP-E1A blk	TRPV1 potentiator	Sfp inh
45: COCCNC(=S)N(Cc1cc2cc(C)ccc2n2nnnc12)C1CCCC1
    1.2	2.2%	0.4	-8.3	14.5	-7.6	13.5%
46: NS(=O)(=O)c1ccc(CNC(=O)/C=C/c2ccco2)cc1
    -22.5	1.3%	1.3	-7.4	3.3	5.0	20µM*
47: c1ccc(CCNc2nnnn2-c2ccccc2)cc1
    17.4	-1.1%	-1.9	-23.0	-2.5	-0.6	-2.6%
48: Cc1noc(C)c1CSc1nnc2ccccn12
    3.1	6.5%[38.3 µM]	-2.5	-11.2	4.4	-5.3	7.5%
49: CN1c2ccccc2-c2nc3ccccc3n2C1c1ccccn1 (stereo not given)
    -8.8	-0.5%	-6.3	-10.7	-7.1	1.2	?
50: CC(C)(C)c1ccc(C(=O)N2CCN(CCNC(=O)C(=O)Nc3ccc(F)cc3)CC2)cc1
    -2.3	6.7%	-3.2	-14.1	-5.3	-7.4	15.4%
51: CCOc1cccc2cc(-c3csc(NC(=O)CCC(=O)N4CCC(C)CC4)n3)c(=O)oc12
    -2.9	9.4%	2.6	-0.9	6.3	0.6	5.0%
52: CC(Oc1ccc2c3c(c(=O)oc2c1)CCCC3)C(=O)NC1CC(C)(C)NC(C)(C)C1 (stereo not given)
    -0.6	-0.3%	0.3	-4.8	-1.7	13.0	4.4%
53: CC(NC(=O)c1cccs1)C(=O)NC1=NCCS1 (stereo not given)
    -2.0	4.3%[38.3 µM]	1.4	-4.8	-6.7	5.3	-6.5%
